Screening results from PubChem.
StopGo reporter = FMDV 2A StopGo reporter, luciferase signal. human cells with a luciferase reporter of 2A StopGo recoding; control for the full effect not named in the record. Potency, µM (doses to about 57.9 µM), for inactives: top-dose signal change, negative = less light. hit rate 1.2% among 410,000. AID 1159524; active = well fitted falling curve with a large enough effect; inconclusive = small, poorly fitted or top-dose-only effect; inactive = no such curve, though single readings can be large or run the other way; tested in HEK293T cells; note: % is set by controls: 0 for no effect and ±100 for the full control effect; nearly all actives have a fitted effect of over 45% in size; luciferase light after 4 h
LASV entry inh = Lassa virus entry inhibition | Lassa virus pseudotype entry inhibition, cell reporter; control for the full effect not named in the record | Potency, µM (top dose mostly 37.9 µM), for the others: at the top dose activity change, negative = inhibition, hits mostly inhibitors | hit rate 1.2% among 300,000 | AID 540256; active means well fitted inhibition curve with a large enough effect; inconclusive means small, poorly fitted or top-dose-only effect, or effect the other way; inactive means flat fitted curve, though single readings scatter; tested in HEK293 cells; note: % is set by controls: 0 for no effect and ±100 for the full control effect; nearly all actives have a fitted effect of over 50% in size; luciferase read-out
RE007 growth inh = less growth of the S. pombe RE007 Vpr strain | AID 651644 | S. pombe RE007 Vpr strain, BacTiter-Glo ATP luminescence, 24 h; control for the full effect not named in the record | hit rate 0.21% among 360,000 | Potency, µM (doses to about 92.2 µM), for inactives: at the top dose activity change, negative = less growth; active = well fitted falling curve with a large enough effect; inconclusive = small, poorly fitted or top-dose-only effect; inactive = no such curve, though single readings can be large or run the other way;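 note: % is set by controls: 0 for no effect and ±100 for the full control effect; nearly all actives have a fitted effect of over 50% in size; the assay follows cell death caused by Vpr and the record does not say whether a fall means rescue or toxicity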
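Fission yeast RE007 carrying one integrated HIV-1 vpr copy, seeded at OD 0.01 in PMG+AL medium with 23 nL pinned compound. Grown 24 h at 30 degrees; viability read by BacTiter-Glo luminescence after 5 min.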
SARS PLpro yeast = inhibitors of SARS-CoV papain-like protease in yeast; hit rate 0.19% among 330,000; Potency, µM (highest dose often 32.9 µM), for the others: top-dose activity, positive = growth rescue; S. cerevisiae expressing SARS-CoV PLpro, growth rescue; control for the full effect not named in the record; note: 0% is about no effect; nearly all actives have a fitted effect of over 55% in size; growth read by luminescence after 48 h
NS1 inh = blocks influenza NS1 protein function; S. cerevisiae slowed by influenza A NS1, growth recovery by OD600; Potency, µM (highest dose often 46.1 µM), without a hit: top-dose activity, positive = more growth; hit rate 0.4% among 270,000; note: actives are rising curves; nearly all actives have a fitted effect of over 50% in size
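Read-out: OD600 growth recovery of NS1-expressing budding yeast. Cells grown overnight at 30C in -URA glucose medium, washed, resuspended and diluted 1:100 in 2% galactose assay medium, pH 6.0. Same strain lacking NS1 served as positive control.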
Cruzain noTriton = blocks cruzain activity in detergent-free assay; P25779; purified cruzain, Z-FR-AMC fluorescence, no detergent; Potency, µM, for the others: max response, negative = inhibition, hits mostly inhibitors; hit rate 2.3% among 200,000; AID 1476; active = well fitted curve in the direction sought with a large enough effect; inconclusive = small, poorly fitted or top-dose-only effect, or another doubt; inactive = no such curve, though single readings can be large; an effect the other way counts as inactive or inconclusive;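 note: plate controls were enzyme without inhibitor for no effect and buffer without enzyme for full effect; nearly all actives have a fitted effect of over 40% in size; top concentration of the series not given in the record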
Target sequence (P25779 123-467 limits assumed): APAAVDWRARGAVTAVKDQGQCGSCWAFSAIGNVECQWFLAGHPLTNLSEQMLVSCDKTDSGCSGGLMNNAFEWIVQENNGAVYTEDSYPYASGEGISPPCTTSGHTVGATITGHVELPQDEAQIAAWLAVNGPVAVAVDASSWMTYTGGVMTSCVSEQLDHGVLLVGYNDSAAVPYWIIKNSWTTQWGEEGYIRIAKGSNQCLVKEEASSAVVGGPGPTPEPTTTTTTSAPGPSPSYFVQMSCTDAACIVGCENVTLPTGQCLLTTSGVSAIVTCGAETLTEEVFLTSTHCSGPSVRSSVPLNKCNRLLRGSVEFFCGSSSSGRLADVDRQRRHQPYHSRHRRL
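Detergent-free condition (0.00005% Triton X-100) in acetate buffer pH 5.5 with DTT. 1.5 nM enzyme and compound were pre-mixed 15 min, then 2 uM Z-FR-AMC substrate added; reaction progress from fluorescence change between first and third reads (60 s).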
Cruzain inh Det = blocks cruzain activity in presence of Triton detergent; purified cruzain, Z-FR-AMC fluorescence, 0.01% Triton; Potency, µM, inactives show max response, negative = inhibition, most hits filed as inhibitors; hit rate 0.43% among 200,000; active = well fitted curve in the direction sought with a large enough effect; inconclusive = small, poorly fitted or top-dose-only effect, or another doubt; inactive = no such curve, though single readings can be large; an effect the other way counts as inactive or inconclusive;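 note: plate controls were neutral wells for no effect and buffer without enzyme for full effect; nearly all actives have a fitted effect of over 40% in size; top concentration of the series not given in the record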
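Detergent-containing arm of a paired screen for aggregation-based inhibition: 0.01% Triton X-100 present. Cruzain at 1.5 nM cleaved 2 uM Z-FR-AMC at pH 5.5 with 5 mM DTT; AMC fluorescence gain over 60 s measured activity.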
Marburg entry inh = inhibitors of Marburg virus binding or cell entry. Marburg virus pseudotyped entry inhibition, cell reporter; control for the full effect not named in the record; about a third of the inactives were read at about 46 µM. Potency, µM (titrated, usually from 37.8 µM), inactives show at the highest dose activity change, negative = inhibition, actives largely listed as inhibitors. hit rate 1.8% among 300,000. AID 540276; active = well fitted inhibition curve with a large enough effect; inconclusive = small, poorly fitted or top-dose-only effect, or effect the other way; inactive = flat fitted curve, though single readings scatter; tested in HEK293 cells; about a fifth of its hits are not listed in these tables; note: % is set by controls: 0 for no effect and ±100 for the full control effect; luciferase read-out
Numbers without * were called inactive; ? = inconclusive; · = not tested or not shown; & = joins results of further samples; [ ] = another dose, or the depositor's remark. Unless noted, calls come from the whole dose curve; as a rule, active means well fitted rising curve with a large enough effect; inconclusive means small, poorly fitted or top-dose-only effect; inactive means no such curve, though single readings can be large or run the other way. Potency is the fitted concentration of half-maximal effect. No enrichment for hits, and some 4.5% of all compounds hit somewhere here.

SMILES	StopGo reporter	LASV entry inh	RE007 growth inh	SARS PLpro yeast	NS1 inh	Cruzain noTriton	Cruzain inh Det	Marburg entry inh
Cc1cc(-c2ccc(C)c(S(=O)(=O)N3CCN(c4ccccn4)CC3)c2)on1	?	·	2%	18%	-14%	·	·	·
CCOc1ccc(N2Cc3ncccc3C2=O)cc1	20%	?	3%	-2%	-6%	-3%	-1.9%	?
Cc1ccc(/C(N)=N/OC(=O)C(C)c2ccc([N+](=O)[O-])cc2)cc1 (centres undefined)	5%	0%[46.1 µM]	-13%	-10%	2%	·	·	?
O=C(CCN1CCCCO1)N1CCCC(Nc2cccc(F)c2)C1 (centres undefined)	-6%	14%	-2%	-5%	7%	·	·	21%[46.1 µM]
COc1ccc(C(=O)N/N=C/c2cc(Br)ccc2O)cc1OC	-13%	2.5µM*	-2%	4%	-4%	·	·	8.9µM*
Cc1cccc(C)c1OCc1nc2c3cnn(-c4ccccc4Br)c3ncn2n1	-5%	?	·	·	·	-6%	-1.6%	10%[46.1 µM]
CN1C(=O)C2(c3ccccc31)c1c(oc3ccccc3c1=O)C(=O)N2CCO (centres undefined)	-17%	·	-9%	1%	7%	·	·	·
Cn1cccc1C(=O)NC(=O)COC(=O)Cc1coc2ccc3ccccc3c12	-22%	-4%	-13%	-3%	-2%	?	-9.9%	?
CCOC(=O)NC(Cc1c[nH]c2ccccc12)C(=O)NCCc1ccc(S(N)(=O)=O)cc1 (centres undefined)	9%	0%[46.1 µM]	4%	1%	3%	·	·	-24%[46.1 µM]
CCOc1cccc(N2C(=O)CC(NCc3ccc(S(N)(=O)=O)cc3)C2=O)c1 (centres undefined)	-19%	12%	-12%	-15%	1%	8%	3.5%	13%
CCOC(=O)c1cc(-c2ccccc2)sc1NC(=O)CC	11%	?	-6%	-5%	-11%	1%	-8.7%	?
COC(=O)c1ccccc1C(=O)N1CCCC(C(=O)c2ccc(OC)c(OC)c2)C1 (centres undefined)	-9%	·	-10%	0%	-9%	·	·	·
Cc1onc(C(=O)Nc2sc3c(c2C(N)=O)CCCC3)c1[N+](=O)[O-]	18%	·	-9%	-3%	-47%	·	·	·
Cc1ccc(C)c2[nH]c(=O)c(CCNC(=O)CC(C)(C)C)cc12	-23%	2%	-5%	-6%	-26%	-8%	-2.8%	-3%
O=C1COc2ccc(C(=O)COC(=O)c3ccccc3[N+](=O)[O-])cc2N1	20%	1%	-9%	4%	·	·	·	-3%
CCCS(=O)(=O)Nc1c(C(=O)O)[nH]c2ccc(OC)cc12	2%	25%	-10%	-2%	4%	·	·	1%
Cc1cc(C)c2nc(SCC#N)cc(C)c2c1	·	-11%	9%	6%	-5%	-4%	-9.5%	-13%
Cc1cc(C)nc(N2CCC(C(=O)NCCc3ccccc3)CC2)n1	2%	16%	-4%	4%	-12%	-5%	4.2%	-11%
O=c1oc2ccccc2c(N2CCN(c3ccc(F)cc3)CC2)c1CN1CCCC1	-6%	-31%[46.1 µM]	·	·	·	-3%	-2.9%	?
CN(C)c1ccc(CN(C(=O)/C=C/c2ccco2)C2CCS(=O)(=O)C2)cc1 (centres undefined)	-18%	1%	4%	0%	3%	·	·	-10%
Oc1ccc(C=Nc2ccccc2-c2nc3ccccc3[nH]2)cc1	15%	14%	0%	-51%	-20%	15%	-17%	18%
O=C1c2ccc(-c3ccc4c(c3)C(=O)N(CCCO)C4=O)cc2C(=O)N1CCCO	-8%	·	-4%	0%	1%	·	·	·
Cc1ccc(NC(=O)c2cncc(Br)c2)c(O)c1	44%[activator]	?	-18%	0%	1%	·	·	?
Cc1noc(C)c1COC(=O)CCCc1c[nH]c2ccccc12	2%	?	17%	-12%	-11%	1%	-12%	-6%[46.1 µM]
O=C(c1ccccc1)N1CCN(C2CCCCC2)CC1	-7%	3%	1%	-9%	3%	5%	-1.4%	-15%
CCOc1ccc(NC(=O)Cn2c(=O)oc3cc(S(=O)(=O)N4CCC(C)CC4)ccc32)cc1	?	-10%[46.1 µM]	·	·	·	11%	-4.0%	-19%[46.1 µM]
CCn1c(SCC(=O)Nc2cc(C)on2)nnc1-c1cccc(C)c1	26%	-1%[46.1 µM]	-2%	-1%	1%	·	·	24%[46.1 µM]
CC(=O)NC1(C(=O)O)CCCC1	-3%	8%	-21%	1%	7%	·	·	5%[46.1 µM]
COc1cccc(C2=NOC(C(=O)Nc3c(C)n(C)n(-c4ccccc4)c3=O)C2)c1 (centres undefined)	13%	·	-4%	2%	-4%	·	·	·
O=C(Nc1ccc(Cl)cc1)[C@@H]1[C@@H]2C(=O)N(c3ccc(Cl)cc3Cl)C(=O)[C@@H]2[C@H]2C=CC=NN21	·	·	·	-10%	22%	16µM*	-5.3%	2%
O=C(O)CCc1[nH]c2ccccc2c1Sc1ccccc1	-16%	0%	12%	0%	3%	·	·	?
CC(Cl)C(=O)c1c(N)n(C)c(=O)n(C)c1=O (centres undefined)	17%	0%	2%	12%	?	4%	3.4%	15%
Cc1ccc2c(c1)N(C(=O)Nc1cccc3c1CCCC3)CCO2	?	2%[46.1 µM]	·	·	·	8%	-1.1%	·
Cc1ccc(S(=O)(=O)NCc2ccccc2)cc1C(=O)N(C)CC(=O)Nc1c(Cl)cccc1Cl	25%	-12%	-6%	-1%	·	·	·	0%
Cc1cccc(NC(=O)Nc2c(C)n(C)n(-c3ccccc3)c2=O)c1	0%	21%[46.1 µM]	-28%	1%	1%	·	·	-16%[46.1 µM]
CC(C)c1ccc(NS(=O)(=O)c2ccc3[nH]cc(C(=O)N4CCC(C(N)=O)CC4)c(=O)c3c2)cc1	2%	4%	6%	2%	-1%	?	1.5%	11%&11%
CCc1ccc(S(=O)(=O)Nc2ccc3c(c2)n(C)c(=O)c(=O)n3C)cc1	-9%	-26%[46.1 µM]	·	·	·	4%	-1.5%	·
Cc1ccc(C(=O)Nc2nc3ccc(S(=O)(=O)N4CCCC4)cc3s2)cc1	-2%	-2%[46.1 µM]	·	·	·	-8%	1.0%	·
CC(C)N1C(=O)S/C(=C/c2ccc(Sc3nc4ccccc4[nH]3)o2)C1=O	11µM*	?	2%	-17%	14%	-6%	-5.1%	?
CCCc1nc2ccccc2c(NC(=O)CN(CC)CC)c1CC	-12%	?	-9%	-1%	·	·	·	-4%[46.1 µM]
CCc1ccc(OC(=O)c2cncc(Br)c2)cc1	14%	?	2%	0%	-3%	·	·	?
Cc1c(F)cccc1NC(=O)CSCC(=O)Nc1ccccc1	-8%	-4%	-6%	-2%	-1%	3%	-2.4%	0%[46.1 µM]
CN(C)C(=Nc1ccccc1)P(=S)(N(C)C)N(C)C	-11%	?	-4%	2%	·	·	·	4%[46.1 µM]
Cc1ccsc1CN1CCN(c2ccccn2)CC1	-12%	?	-24%	-9%	2%	-4%	-2.4%	8%
CC(=O)c1cc(CN2CCN(CC=C(C)C)C(CCO)C2)cs1 (centres undefined)	-8%	-10%[46.1 µM]	-6%	0%	3%	·	·	0%[46.1 µM]
O=C(c1ccc(F)cc1)N1CCN(c2cc(=O)[nH]nc2-c2ccccc2)CC1	8%	-13%	2%	3%	-16%	0%	3.9%	?
O=C(Oc1nsnc1N1CCOCC1)N1CCOCC1	·	-8%	-10%	-1%	-6%	8%	1.3%	-2%
O=C(c1cccn(Cc2ccc(C(F)(F)F)cc2)c1=O)N1CCOCC1	0%	-15%	15%	1%	-2%	·	·	12%[46.1 µM]
COc1ccc2[nH]c(=O)c(CN(C)C(=O)C3CCCCC3)cc2c1	-11%	?	5%	-1%	6%	1%	-2.4%	-1%
Cc1ccc(-c2nn(-c3ccc(F)cc3)cc2C(=O)NCC2CCCO2)cc1 (centres undefined)	16%	-19%	-23%	-1%	·	·	·	-33%
CCCCn1c(=O)[nH]c(=O)c2c1nc(-c1cc3c(cc1Br)OCO3)n2C	-23%	?	6%	0%	·	·	·	2%[46.1 µM]
CCOC(=O)c1cccc(NC(=O)/C=C/c2ccc([N+](=O)[O-])cc2)c1	?	?	-23%	0%	11%	9%	-11%	?
OC/C(Br)=C(\Br)CO	-10%	·	0%	-6%	·	-4%	4.4%	·
C[C@H]1CC[C@H]2C(=O)N[C@H](Cc3ccccc3)C(=O)N2[C@@H]1c1ccccc1	-12%	-2%	16%	9%	-11%	-3%	-2.2%	-17%[14.2 µM]
C/C(=N\NC(=O)C(C)n1nc(C)c([N+](=O)[O-])c1C)c1ccccc1O (centres undefined)	-14%	13µM*	3%	?	15%	-1%	-3.8%	9.2µM*
CCOC(=O)CC1C(=O)NCCN1Cc1cccs1 (centres undefined)	-6%	·	9%	0%	3%	·	·	·
COC(=O)C1CN(C(=O)COc2cccc(C)c2C)c2ccccc2O1 (centres undefined)	17%	·	-13%	-3%	-9%	·	·	·
CSc1ccccc1NC(=S)NC1CCCC1	30%	·	-12%	9%	-12%	·	·	·
COc1cccc(/C=N/Nc2ncccc2[N+](=O)[O-])c1OC	7.1µM*	?	?	-2%	0%	·	·	1.6µM*
CNS(=O)(=O)c1cnccc1N1CCN(c2cccc(C(F)(F)F)c2)CC1	?	-1%	13%	-2%	-1%	22%	-1.0%	-29%
O=C(CCS(=O)(=O)c1ccc(Br)cc1)N1CCC2(CC1)OCCO2	8%	-14%	-3%	-5%	0%	0%	1.9%	14%
COCCNCC(=O)N1CCCCCC1	-9%	23%	7%	-1%	·	·	·	0%
